eIF4H inh = inhibitors of RNA binding by human eIF4H. Q15056. eIF4H fluorescence polarization binding assay. inhibition, % at 35 µM. 0.94% of 290,000 active. AID 2012;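 active = 50% or more with normal probe brightness, or confirmed in later tests; inconclusive = above 50% with abnormal brightness, or retests that disagree; inactive = below 50% or failed in later tests; about a fifth of its hits are not listed in these tables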;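 note: calls also rest on retests at 20 µM and on dose response follow-up; 0% = protein and probe with vehicle and 100% = probe without protein; strong numbers were not always called active; many hits fall short of the cut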
Env fusion inh = inhibitors of HIV Env-mediated cell fusion. HeLa-JRFL Env/CEM21 cell fusion, luciferase. inhibition, % at 12.3 µM. 1.1% of 360,000 active. AID 651610;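 active = mean replicate inhibition score of at least 50 and every replicate individually at or above 50; inconclusive = only one of the two criteria met; inactive = mean below 50 and not all replicates reaching 50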;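 note: 0% = plate neutral controls and 100% = maraviroc near 300 nM; one replicate is shown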
UUG fidelity = modulators of start codon recognition fidelity in yeast; S. cerevisiae UUG-firefly luciferase reporter, luminescence/redox ratio; activity score, % at 18.7 µM; 0.13% of 350,000 active;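 active = replicate mean at a twofold rise or more, about +100% in these data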;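 note: firefly luciferase made from a UUG start codon reports start codon fidelity; reporter light over untreated wells divided by growth signal over untreated wells; some hits fall short of that in this replicate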
CSC inhib = blocks cancer stem cells. cancer stem cell-like cells viability, luminescence. inhibition, % at 7.5 µM. AID 2717. 1.1% of 300,000 active;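 active = mean at 75% or more and at least half the replicates too; inconclusive = mean and replicates disagree; tested in HMLE shEcad cells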;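 note: 0% = median of negative and 100% = median of positive control wells; the first replicate is given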
MT1-MMP act inh = inhibitors of human MT1-MMP activation; AID 651647; HT1080 RFP-PRO-GFP cells, GFP/RFP ratio fluorescence, overnight; percent of plate control window, DMSO zero; GFP/RFP ratio change, % at 20 µM; 0.061% of 360,000 active; P50281;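 active = GFP/RFP ratio change of at least 30% with cell ATP level not reduced by more than half and red fluorescence within 50% of control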; note: strong numbers were not always called active
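Assay system: HT1080 cells carrying an RFP-PRO-GFP reporter | Dosing: Single dose of 20 µM compound, 1% DMSO final | Incubation: Cells overnight before dosing, compound overnight, 37 °C, 5% CO2 | Evaluation: GFP/RFP fluorescence ratio | Control set: DMSO and RFP-L50D-GFP cell wells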
Rce1 inh = blocks yeast Ras-converting enzyme; Q03530; yeast membranes, quenched prenylated peptide cleavage fluorescence; calls only; 0.27% of 290,000 active;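 active = fall in fluorescence gain of 50% or more versus controls, with final raw signal at or below 3038400; inconclusive = same 50% fall but final raw signal above 3038400; inactive = fall in fluorescence gain under 50%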;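 note: plate controls were neutral control wells for no effect and wells lacking membranes for full effect; tested at 10 µM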
Target sequence (Q03530 whole entry, looked up): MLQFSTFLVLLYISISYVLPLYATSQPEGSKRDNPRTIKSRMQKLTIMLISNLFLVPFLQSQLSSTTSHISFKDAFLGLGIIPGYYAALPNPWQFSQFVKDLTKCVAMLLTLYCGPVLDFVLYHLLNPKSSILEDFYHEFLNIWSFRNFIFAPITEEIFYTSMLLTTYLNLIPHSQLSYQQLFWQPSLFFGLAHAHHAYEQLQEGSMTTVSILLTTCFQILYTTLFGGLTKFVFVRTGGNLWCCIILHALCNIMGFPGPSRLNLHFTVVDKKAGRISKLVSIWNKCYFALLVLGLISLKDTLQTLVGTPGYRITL
PABP polyA inh = blocks human PABP binding to poly(A) RNA. inhibition, % at 35 µM. 1% of 290,000 active. fluorescence polarization. P11940;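 active = 50% or more with normal probe brightness, or confirmed in later tests; inconclusive = above 50% with abnormal brightness, or retests that disagree; inactive = below 50% or failed in later tests; about a fifth of its hits are not listed in these tables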;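 note: calls also rest on retests at 20 µM and on dose response follow-up; controls were probe without protein and protein plus probe with vehicle; some compounds called inactive have numbers as strong as hits; many hits fall short of the cut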
eIF4H inh retest = also measured in eIF4H inh; calls as there; inhibition, %; compound at 20 µM; confirmation average;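 mean of two retest wells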
PABP polyA inh retest = also measured in PABP polyA inh; calls as there; inhibition, %; compound at 20 µM; confirmation repeats;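 mean of two retest wells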
MT1-MMP act inh RFP = second read-out of MT1-MMP act inh, no call of its own (marks repeat the call); RFP signal change, %; measured here: RFP expression control read;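 0 = vehicle wells; hits needed this value within 50% of zero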
* = called active by the depositor; i = inactive; ? = inconclusive; · = no result given; & = joins results of further samples; [ ] = another dose, or the depositor's remark.

SMILES | eIF4H inh | Env fusion inh | UUG fidelity | CSC inhib | MT1-MMP act inh | MT1-MMP act inh RFP | Rce1 inh | PABP polyA inh | others
O=C(CSc1nc2[nH]ncc2c(=O)[nH]1)Nc1ccccc1F | · | 9 | · | 7 | 3 | -2 | i | ·
CCCc1cc(=O)oc2cc(O[C@@H]3O[C@H](CO)[C@@H](O)[C@H](O)[C@H]3O)ccc12 | -4 | -3 | 0 | 8 | -9 | 1 | i | -3
O=C(CSc1nnc(-c2cccs2)n1-c1ccccc1)Nc1ccccc1 | -3 | · | · | -21 | 2 | 2 | i | -8
CCOC(=O)C1CCN(C=Nc2cc(C)on2)CC1 | 0 | · | -9 | · | 3 | 7 | i | 0
CN1CCN(c2ccc(NC(=O)c3cccs3)cc2)CC1 | 3 | 4 | -22 | 4 | -1 | -2 | · | -7
O=C(Oc1c(-c2ccccc2)c(=O)n2c3c(cccc13)CC2)c1ccccc1 | 3 | -5 | 7 | -7 | 0 | 0 | i | -7
Cc1cccc(OCc2nnc(SCC(=O)N3CCCC3)n2C)c1 | -4 | -18 | -8 | -5 | 1 | 3 | i | -8
S=C(Nc1cccnc1)N1CCc2ccccc21 | -7 | 1 | -28 | -30 | -3 | 0 | i | 10
Cc1cccc(C(=O)N2CCCN(C(=O)c3cccc(C)c3)CC2)c1 | -6 | · | -12 | -16 | 3 | 6 | i | 4
O=C(C=NNc1ccccc1)c1ccccc1 | · | -266 | -21 | · | 4 | 6 | · | ·
CCNCc1nc2cc(Cl)ccc2c(=O)[nH]1 | 4 | 12 | · | -11 | -3 | -5 | i | -15
CC(C)Nc1nc(-c2ccncc2)nc(-c2ccccc2)c1C#N | -2 | 23 | 18 | 5 | -2 | -4 | i | -6
O=C(NCc1ccccc1Cl)c1cnc2n(c1=O)CCS2 | 1 | 8 | -7 | -3 | 3 | 3 | i | 6
O=C(O)CCC(=O)Nc1ccc(C(=O)OCC(=O)c2ccc(Cl)cc2Cl)cc1 | 2 | 4 | · | -4 | 4 | 4 | i | 11
CCOC(=O)C1=C(CC)Nc2ccccc2N=C1NC(=O)c1ccc(OC)c(S(=O)(=O)N2CCCCC2C)c1 (centres undefined) | 1 | 17 | · | 8 | 0 | -2 | i | -6
Cc1ccc(SCCC(=O)NCc2ccccn2)cc1 | 4 | 0 | -8 | 8 | -2 | 2 | i | 4
COc1ccc(N2CCN(C(c3cccs3)C(C)NC(=O)c3ccco3)CC2)cc1 (centres undefined) | -3 | -17 | 50 | -9 | 3 | -5 | i | -4
Cc1ccc(N=Cc2c(O)c3ccccc3oc2=O)c(C)c1 | 2 | 6 | -14 | 3 | -8 | -2 | i | 1
O=C(CSc1ccc2nnc(CCNC(=O)c3ccc(F)cc3)n2n1)NCc1ccco1 | 19 | 4 | -22 | 15 | -1 | 1 | i | 5
CC(OC(=O)C1CCN(S(=O)(=O)c2ccc(Cl)cc2)CC1)C(=O)NC1CCCCC1C (centres undefined) | -12 | · | 1 | -1 | 0 | -2 | i | -3
COc1ccc(N2CCN(C(=O)COCC(=O)O)CC2)cc1 | 4 | 3 | -13 | 9 | -1 | 1 | i | -4
CCN1CCN(c2ncc(C(=O)N3CCCc4ccccc43)c3ccccc23)CC1 | 0 | -13 | -1 | 1 | -11 | -11 | i | -7
CN(C)CCN(C(=O)c1cccs1)c1nc2cc3c(cc2s1)OCCO3 | -4 | -4 | -5 | -4 | 0 | 5 | i | 0
CC1CCCCC1NC(=O)c1ccc(S(=O)(=O)NNC(=O)c2ccncc2)cc1 (centres undefined) | 6 | -15 | -19 | -23 | 3 | 2 | i | 0
O=C(Nc1cc(Cl)ccc1-n1cncn1)c1ccco1 | 16 | 2 | -18 | -5 | -2 | 3 | i | 1
O=C(NCCN1CCOCC1)c1cc(-c2ccc(Cl)cc2)on1 | 7 | · | -11 | 7 | 8 | -5 | i | -3
Cc1ccc(NC(=O)CCN2C(=O)NC(C)(C)C2=O)cc1F | · | 4 | 7 | · | -3 | 3 | · | ·
CC(C)(C)NC(=O)C(c1cccs1)N(Cc1ccc(F)cc1)C(=O)c1csnn1 (centres undefined) | -3 | 38 | · | 11 | -5 | -2 | i | 5
COc1ccc(NC(C)C(=O)N/N=C/c2cc(Br)ccc2OC)cc1 (centres undefined) | 5 | 12 | 0 | -14 | 1 | 2 | i | 43
O=C(COc1c(Cl)cccc1Cl)NN1C(=O)CSC1=S | 2 | 15 | -6 | 0 | 4 | 14 | i | 9
C/C(=N\NC(=S)Nc1ccc(F)cc1)c1ccc2c(c1)OCCO2 | -3 | 22 | -36 | 76* | 6 | 2 | i | -4
COc1ccccc1C(=O)NCCC(=O)N(C)Cc1cccs1 | · | -2 | -10 | -4 | 1 | 1 | i | ·
O=C(Nc1ccccc1)C(Cc1ccccc1)c1ccccc1 (centres undefined) | · | 9 | -28 | · | -1 | 1 | · | ·
Cc1cccc(NC(=O)COC(=O)CN2C(=O)c3ccccc3C2=O)c1C | · | -20 | 7 | · | -2 | 1 | · | ·
Cn1c(=O)c2c(nc(CN3CCN(C(=O)c4ccco4)CC3)n2Cc2ccccc2F)n(C)c1=O | 1 | 0 | -9 | -5 | · | · | i | 1
NC(=O)CNCCC(c1ccccc1)c1ccccc1 | · | 7 | -17 | -13 | 1 | 1 | · | ·
CC(C)(C)c1ccc(C(=O)NCCC(=O)NNC(=O)COc2ccc(F)cc2)cc1 | · | 0 | -9 | -17 | -1 | 1 | · | ·
Fc1ccccc1CNC(=S)NC1CCCCC1 | -6 | -3 | -21 | -16 | 0 | -1 | i | 4
CCOc1cc(CNn2cnnc2)ccc1OCC(=O)NC1CCCCC1 | 0 | -5 | -6 | -4 | 0 | -2 | i | 0
O=C(Cn1ncc(Cl)c(Cl)c1=O)N1CCN(Cc2ccccc2)CC1 | 10 | -110 | · | · | -11 | -23 | i | 13
CCOc1ccccc1NC(=O)CNC(=O)Cc1ccccc1 | -11 | -2 | -2 | -3 | -1 | -1 | i | -6
Cc1ccccc1N(CC(=O)N1CCN(Cc2ccccc2)CC1)S(C)(=O)=O | · | 16 | -25 | · | -3 | -2 | · | ·
O=C(O)c1cc2ccccc2c(=O)s1 | -6 | · | -2 | 11 | 3 | 0 | i | 6
CC(C)=CCc1c(O)cc2c(=O)c3ccc(O)cc3oc2c1O | · | · | -11 | 83* | -2 | -9 | i | ·
Cc1onc(-c2c(Cl)cccc2Cl)c1C(=O)c1ccccc1 | 9 | 10 | -13 | -2 | -3 | -4 | i | -4
COc1ccc(N(CC(=O)NCC2CCCO2)S(=O)(=O)c2ccccc2)cc1OC (centres undefined) | 4 | -7 | -8 | 2 | 3 | 5 | i | 5
CC(OC(=O)c1oc2ccccc2c1CSC1CCCCC1)C(=O)NC(N)=O (centres undefined) | -8 | 2 | -20 | 8 | 3 | -3 | i | -10
O=C(CCc1ccc(O)c(O)c1)NNC(=S)Nc1ccc(Br)cc1Cl | 8 | 20 | -25 | -3 | 5 | 3 | i | -7
Oc1ccccc1-n1c(-c2ccccc2)ccc1-c1ccccc1 | 0 | 12 | -19 | ? | -11 | -4 | i | -1
Cc1ccc(-c2nc3ncccn3c2NC(=O)C2CC2)cc1 | -2 | · | -21 | -5 | -2 | 6 | i | 8
CCC(C)C(NC(=O)c1ccccc1NC(=O)c1ccco1)C(=O)O (centres undefined) | 0 | -94 | -14 | -9 | -8 | 0 | i | 10
C#CCNC(=O)C1=C[C@H](c2cn(C(C)=O)c3ccccc23)C[C@H](OCc2ccc(CO)cc2)O1 | 2 | -6[16.7 µM] | 14&0 | 1 | -2 | 3 | i | -2
CCC(C)N=C1Sc2nc3ccc(C)cc3cc2CN1CCOC (centres undefined) | 1 | 2 | · | 10 | 4 | 0 | i | 55 | eIF4H inh retest=-1;PABP polyA inh retest=3
CCCc1nn(C)c(C(=O)Nc2cccc(Cl)c2)c1Cl | -3 | -96 | · | -2 | 0 | -4 | i | 3
COCc1nnc(NC(=O)c2ccc(S(=O)(=O)N3CCOCC3)cc2)o1 | 2 | -10 | -15 | -5 | -9 | 1 | i | -1
Nc1ccc(/C=C/c2ccc3ncccc3c2)cc1 | 14 | -126 | · | 6 | -4 | -7 | i | 17
O=C(COc1ccc(Cl)cc1Br)Nc1nnc(C2CC2)s1 | · | · | -13 | -7 | -1 | 1 | · | ·
Cc1cccnc1NC(=O)C1c2ccccc2Oc2ccccc21 | 1 | -14 | -11 | -25 | -1 | 0 | i | 11
CN(Cc1ccccc1F)C(=O)c1cccc(NC(=O)CC2SC(N3CCCCC3)=NC2=O)c1 (centres undefined) | · | 2 | -15 | · | -13 | -18 | · | ·
CCC(C)(C)n1nnnc1CN(Cc1cccs1)Cc1cc2cc(OC)ccc2[nH]c1=O | 2 | · | · | 9 | 1 | -5 | i | -12
Next part
SMILES | eIF4H inh | Env fusion inh | UUG fidelity | CSC inhib | MT1-MMP act inh | MT1-MMP act inh RFP | Rce1 inh | PABP polyA inh | others
CCN(CC)CCN1C(=O)C(=O)/C(=C(/O)c2cnn(-c3ccccc3)c2C)C1c1cccnc1 (centres undefined) | -2 | · | 10 | 5 | -10 | -1 | i | -1
CC(NCC(O)COC1CCC(C(C)(C)C)CC1)c1ccccc1 (centres undefined) | 0 | 38 | 11 | · | -2 | 2 | · | -7
COC(=O)c1cc(C)nc(Sc2ccccc2N)n1 | 2 | 6 | · | 3 | · | · | i | 3
Nc1c(C(=O)c2ccccc2)sc2nsc(SCCN3CCCC3)c12 | -7 | 33 | 1 | 89* | -147 | -6 | i | -2
Cc1ccnc(NCc2cc(Cl)cc(Cl)c2O)c1 | · | -5 | -14 | · | 0 | 3 | · | ·
O=C(Cc1ccccc1)Nc1ccnn1C1CCN(Cc2ccc(CO)o2)CC1 | 4 | -3 | 5 | -4 | 3 | 4 | i | -3
CC(=O)Nc1cccc(NC(=O)c2cc([N+](=O)[O-])ccc2N2CCCCC2)c1 | · | 3 | 16 | · | -2 | -5 | · | ·
Cn1nnc2cc(C(=O)N3CCSCC3)ccc21 | 0 | -9 | -10 | 5 | 3 | 1 | · | -7
O=C(O)CN(Cc1ccco1)S(=O)(=O)c1ccc(F)cc1 | · | -27 | -13 | -2 | 2 | 5 | i | ·
COn1c(SC(C)C)nc2ccccc2c1=O | -4 | -101 | -18 | 13 | -5 | -5 | i | -6
Cc1cccc(OCC(=O)NCCCNC(=O)c2ccco2)c1 | 3 | -13 | -9 | 13 | -4 | -1 | i | -8
CCOc1cc(C2c3c(-c4ccccc4)n[nH]c3C(=O)N2c2ccc(C(=O)O)cc2)ccc1O (centres undefined) | -2 | 3 | · | -7 | 3 | 5 | i | 18
CCCn1ncc(CN2CCC(C(=O)Nc3cccc(-c4cccc(F)c4)c3)CC2)c1C | -3 | 13 | -11 | 0 | -12 | -6 | i | -5
O=C(OCc1ccc(Br)cc1)c1ccncc1 | 4 | 20 | 1 | -3 | 2 | -2 | i | 4
CC(C)Sc1nc(C(F)(F)F)cc(=O)n1-c1ccccc1 | -1 | 49 | -10 | -11 | 2 | 1 | i | -7
CCCNC1=C(N(C(C)=O)c2cccc(F)c2)C(=O)c2ccccc2C1=O | 17 | 78* | 2 | 102* | -5 | -26 | i | 0

Compound activity: PubChem BioAssay, several laboratories

These rows are one share of the data; rates above refer to the full screens.
